miR-21 reporter: qHTS Assay for Modulators of miRNAs and/orActivators of miR-21; HeLa miR-21 FLuc reporter, luciferase, 48 h; Potency, µM (series often up to 38.3 µM), inactives show top-dose reporter change, positive = more light; 340,000 tested, under 10 active; active = well fitted rising curve with a large enough effect; inconclusive = small, poorly fitted or top-dose-only effect; inactive = no such curve, though single readings can be large or run the other way;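 also: % of control where 0% means no effect; miR-21 action dims this reporter so a rising signal means less miR-21 action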
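Compounds were titrated across several concentrations (up to approximately 40 uM) and incubated 48 hours with HeLa miR-21-FLuc reporter cells (miR-21 target sequence downstream of FLuc, endogenous miR-21). Readout was firefly luciferase luminescence after lytic detection reagent.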
An asterisk follows results filed as active; u = inconclusive. The list is partial. The share of hits here may be higher or lower than overall.

SMILES	miR-21 reporter
Cc1ccc(C)c(NS(=O)(=O)c2ccc3oc(=O)c4ncn(C)c4c3c2)c1	0%
CCOC(=O)Cn1c(=O)oc2cc(S(=O)(=O)Nc3cc(OC)cc(OC)c3)ccc21	-1%
O=S(=O)(c1ccc(Br)cc1)c1nnn2c1nc(NCCc1ccccc1)c1sccc12	-2%
Cc1ccc(CNC(=O)c2c[nH]n3c(=O)c(Cc4ccc(Cl)cc4)c(C)nc23)cc1	9%
COc1ccc(Br)cc1CNC(=O)c1cnc2sc(N3CCCC3)nn2c1=O	-3%
CC(C)C(=O)Nc1nnc2n1CCS2	-2%
CCOc1ccc2c(c1)c(=O)c(S(=O)(=O)c1ccccc1)cn2CC(=O)Nc1ccccc1OC	-1%
Cc1cccc(-n2c(SCC(=O)c3ccccc3)nnc2-c2ccc(Br)cc2)c1	3%
COc1ccc(C(=O)NCCn2cc(SCC(=O)Nc3ccccc3)c3ccccc32)cc1OC	20%
COCCn1c(=O)[nH]c2cc(C(=O)Nc3ccc(OC)cc3)ccc2c1=O	21%
COc1ccccc1N(CC(=O)Nc1ccc(C)c(Cl)c1)S(=O)(=O)c1ccc(C)cc1	6%
COc1cc(-c2noc(-c3ccc(NCc4ccco4)c([N+](=O)[O-])c3)n2)cc(OC)c1OC	-17%
Cc1ccccc1OCCCCn1c(-c2ccc(Cl)cc2)nc2ccccc2c1=O	-2%
COc1ccc(S(=O)(=O)NCCc2csc3nc(-c4ccc(Cl)cc4)nn23)cc1C	5%
CCOC(=O)CSc1nc2ccc(NC(=O)c3ccc(C)cc3)cc2s1	-9%
COc1ccc(NC(=O)Cn2c(=O)c3ccccc3n3nncc23)cc1Cl	-7%
CC(C)c1ccc(NC(=O)CSC2=Nc3ccccc3C3=NC(CCC(=O)NCc4ccco4)C(=O)N23)cc1 (stereo not drawn)	14%
CCOc1ccc(OCC)c(NC(=O)c2cnn(-c3ccc(F)cc3)c2-n2cccc2)c1	14%
COc1cc(-c2nc3sccn3c2Nc2cccc(C)c2)ccc1O	-42%
COc1ccc(S(=O)(=O)N2CCCCC2)cc1C(=O)NC1CCS(=O)(=O)C1 (stereo not drawn)	-5%
CC(=O)NCCNC(=O)CCCc1nnc2n(CC(C)C)c(=O)c3sccc3n12	2%
CN1CC(=O)Nc2cc(C(=O)O)ccc21	-1%
CCOc1ccc(NC(=O)c2ccc3nc(C(C)C)oc3c2)cc1	-10%
O=C(Cn1ccc2cc(S(=O)(=O)N3CCCCCC3)ccc21)NCCc1ccc(Cl)cc1	1%

Reformatted as labelled records: three of the compounds above
CC(=O)NCCNC(=O)CCCc1nnc2n(CC(C)C)c(=O)c3sccc3n12
  miR-21 reporter: 2%
CN1CC(=O)Nc2cc(C(=O)O)ccc21
  miR-21 reporter: -1%
CCOc1ccc(NC(=O)c2ccc3nc(C(C)C)oc3c2)cc1
  miR-21 reporter: -10%

(listing goes on)
SMILES	miR-21 reporter
CCCOc1ccc(CN2C(=O)C(=O)c3cccc(C)c32)cc1	u
Cc1ccccc1NC(=O)Cn1c(=O)n(CC2CCC(C(=O)NCCc3ccccc3)CC2)c(=O)c2ccccc21 (stereo not drawn)	-6%
COc1cccc(CNC(=O)Cn2cc3c(n2)-c2c(oc(C(=O)N4CCCC4)c2C)CC3)c1OC	10%
COc1ccccc1N1CCN(C(=O)c2cc3c(=O)oc4ccc(C)cc4c3s2)CC1	-3%
CCc1nn(CC(=O)Nc2c(C)cccc2C)c(=O)c2cc3sccc3n12	-1%
COc1cccc(CNC(=O)CSc2ncc(S(=O)(=O)c3ccc(Br)cc3)c(=O)[nH]2)c1	3%
CCOc1ccc(N2CC(NC(=O)/C=C\c3ccc4c(c3)OCO4)CC2=O)cc1 (stereo not drawn)	10%
CCCc1cc(=O)n2[nH]c(NCc3ccccc3OC)nc2n1	2%
CCc1ccc(S(=O)(=O)c2nnn3c2nc(N2CCOCC2)c2sccc23)cc1	-11%
COc1cccc(/C=C/c2nc(C#N)c(N3CCN(C)CC3)o2)c1	-16%
COc1ccc(CCNC(=O)c2c(C)nn(-c3ccc(F)cc3)c2-n2cccc2)cc1OC	28%
CC(C)c1nc2ccc(C(=O)NCCCN3CCN(c4ccccc4)CC3)cc2o1	u
CCN(CC)S(=O)(=O)c1cc(-c2nnc(Nc3ccc(OC)c(C(N)=O)c3)c3ccccc23)ccc1C	21%
FC(F)(F)c1ccc(-c2noc(-c3ccccc3Br)n2)cc1	-29%
COc1ccc(S(=O)(=O)N(CC(=O)Nc2ccccc2Br)Cc2ccccc2)cc1	20%
Cc1nc(SCC(=O)Nc2ccccc2Cl)cc(-c2ccccc2)n1	-2%
CN(C(=O)c1ccc2c(c1)N(Cc1cccc(Cl)c1)C(=O)c1ccccc1S2=O)C1CCCCC1 (stereo not drawn)	17%
Cc1ccc(C)c(NC(=O)CCN2C(=O)c3ccccc3Sc3ncccc32)c1	u
Cc1cc(Br)cc2c(C(=O)OCC(=O)c3ccccc3)cc(-c3ccccc3)nc12	-12%
O=C1C2=C(Nc3ccccc3SC2c2c(F)cccc2Cl)c2ccccc21 (stereo not drawn)	0%
Cc1ccc(CNC(=O)C2CCN(S(=O)(=O)c3ccc4c(c3)CCCN4C(=O)C3CCC3)CC2)cc1	27%
COc1ccc(-n2c(=O)c3c(C)c(C)sc3n(CC(=O)NCc3ccc(C)cc3)c2=O)c(OC)c1	1%
COc1ccc(-c2oc3ncn4nc(COc5ccccc5C)nc4c3c2-c2ccc(OC)cc2)cc1	-2%
Cc1ccccc1NC(=O)CSc1nc2ccccc2c2nc(CCn3c(C)nc4ccccc43)nn12	10%
Cc1ccc(/C=C/c2onc(C)c2S(=O)(=O)N2CCC(C(=O)N3CCOc4ccccc43)CC2)cc1	-2%
Cc1c(CC(=O)NCc2ccccc2)c(=O)oc2c(C)c(O)ccc12	17%
COc1ccc(Cl)cc1NC(=O)Cn1cc(C(=O)c2ccncc2)c(=O)c2cc(C)ccc21	-2%
CCc1ccc(C(=O)c2cn(CC(=O)Nc3ccc(Cl)cc3)c3cc4c(cc3c2=O)OCO4)cc1	25%
COc1ccccc1N1CCN(C(=O)CCNS(=O)(=O)c2ccc3c(c2)CCN3C(=O)C2CC2)CC1	7%
O=C(COCc1cc(-c2ccc(F)cc2)on1)Nc1cccc(C(F)(F)F)c1	-1%
CCCOc1ccc(NC(=O)CC2C(=O)N(c3cccc(OC)c3)C(=O)N2Cc2cccs2)cc1 (stereo not drawn)	15%
Cc1[nH]c2ccccc2c1C1N2CC3(C)CN1CC(C)(C2)C3=O (stereo not drawn)	0%
CCn1cc(C(=O)NCCc2ccccc2)c(=O)c2cc(S(=O)(=O)N3CCc4ccccc4C3)ccc21	-5%
Cc1ccc2nc(SCc3nc(-c4ccc(Cl)cc4)no3)[nH]c2c1	24%
COc1ccc(-n2nc(C(=O)NCc3ccc(F)cc3)c3c4ccccc4n(C)c3c2=O)cc1	-4%
Cc1c(CCNC(=O)c2c(F)cccc2F)sc2nc(-c3ccc(F)cc3)nn12	-45%
O=C(CCc1nnc2n(Cc3ccccc3Cl)c(=O)c3ccccc3n12)Nc1ccccc1	-1%
CCC1CCCCN1CCCNC(=O)c1ccc2c(c1)N(Cc1ccc(Cl)cc1)C(=O)c1ccccc1S2(=O)=O (stereo not drawn)	u
Cc1ccc(-n2ncc(C(=O)NCCc3c[nH]c4ccccc34)c2C2CCN(C(=O)OC(C)(C)C)CC2)cc1C	u
COc1cccc(NC(=O)Cn2c(=O)n(CCC(=O)NCCc3ccc(Cl)cc3)c(=O)c3ccccc32)c1	-3%
Cc1ccccc1CCNC(=O)c1ccc(NC(=O)N2CC(C)Sc3ccccc32)cc1 (stereo not drawn)	-2%
Cc1ccc(Cl)cc1N1CCN(c2ncnc3c2nc2n3CCCCC2)CC1	3%
CCOc1ccc(Nc2oc(-c3ccc(COc4ccccc4C)o3)nc2C#N)cc1	-24%
CC(C)NC(=O)C1CCN(C(=O)N2CC(C)Oc3ccccc32)CC1 (stereo not drawn)	-36%
Cc1ccc(CCNC(=O)c2cc3cc(S(=O)(=O)N4CCCCC4)ccc3n2C)cc1	4%
Cc1cccc(C(=O)Nc2cccc(OCc3cc(=O)n4cccc(C)c4n3)c2)c1	3%
CCOC(=O)c1cc(OC(=O)c2ccc(OC)cc2)n(-c2ccccc2)n1	-6%
Cc1ccc(CNC(=O)CCC(=O)N2Cc3ccccc3Oc3ncccc32)cc1	-3%

Part of the list above, set out differently:
| miR-21 reporter | Compound |
| --- | --- |
| 10% | COc1cccc(CNC(=O)Cn2cc3c(n2)-c2c(oc(C(=O)N4CCCC4)c2C)CC3)c1OC |
| -3% | COc1ccccc1N1CCN(C(=O)c2cc3c(=O)oc4ccc(C)cc4c3s2)CC1 |
| -1% | CCc1nn(CC(=O)Nc2c(C)cccc2C)c(=O)c2cc3sccc3n12 |
| 3% | COc1cccc(CNC(=O)CSc2ncc(S(=O)(=O)c3ccc(Br)cc3)c(=O)[nH]2)c1 |
| 10% | CCOc1ccc(N2CC(NC(=O)/C=C\c3ccc4c(c3)OCO4)CC2=O)cc1 (stereo not drawn) |
| 2% | CCCc1cc(=O)n2[nH]c(NCc3ccccc3OC)nc2n1 |
| -11% | CCc1ccc(S(=O)(=O)c2nnn3c2nc(N2CCOCC2)c2sccc23)cc1 |

The list goes on:
SMILES	miR-21 reporter
Cc1cc(NC(=O)CSc2nc(-c3ccccc3F)nc3c2c(=O)n(C)c(=O)n3C)no1	0%
CC(C)c1ccc(C2NC(=O)c3c(sc4c3CCN(C)C4)N2)cc1 (stereo not drawn)	-9%
Cc1ccc(-c2nnc(Nc3ccc(Cl)c(Cl)c3)c3ccccc23)cc1S(=O)(=O)NCCO	-1%
CCOCCCNC(=O)Cn1nc(CC)n2c(cc3c(OC)cccc32)c1=O	3%
CCS(=O)(=O)c1ncc(Cl)c(C(=O)Nc2ccccc2)n1	u
O=C(NCCc1csc(-c2ccc(F)cc2)n1)C(=O)Nc1ccc(Cl)cc1	-4%
COc1ccc(-c2nnn3c2nc(N2CCCC(C)C2)c2ccccc23)cc1 (stereo not drawn)	-4%
Cc1ccc2c(c1)-c1onc(C(=O)N3CCN(c4ccc(Cl)cc4)CC3)c1CO2	23%
Cc1ccc(OC(=O)c2snnc2C)cc1C	-6%
COc1cccc(N2CCN(c3ccc4nnc(CCC(=O)O)n4n3)CC2)c1	0%
Cc1ccc(-c2nnc3ccccc3c2C(=O)Nc2cccc(Cl)c2)cc1	-41%
COc1ccc(CCC(=O)NCc2ccc3c(c2)CCN3C(=O)c2ccc(F)cc2)cc1	21%
O=C1C(c2ccc(C(F)(F)F)cc2)=C(Nc2ccc(Cl)cc2)c2ccccc21	0%
Cc1cc(OC(C)C(=O)N(Cc2ccco2)Cc2ccco2)cc(C)c1Cl (stereo not drawn)	14%
CCN(CC)CCN(C(=O)c1ccc(C(=O)OC)cc1)c1nc2ccc(Cl)cc2s1	-27%
O=C(CCc1ccccc1)N1CCc2c([nH]c3ccccc23)C1c1ccc(Cl)cc1 (stereo not drawn)	-2%
O=C(CN1CCN(CC(=O)Nc2ccccc2F)CC1)Nc1ccc(Cl)c(C(F)(F)F)c1	27%
Cc1ccc(Cl)cc1NS(=O)(=O)c1ccc2oc(=O)c3ncn(C)c3c2c1	5%
CS(=O)(=O)NCC(c1ccco1)N1CCN(c2ccccc2)CC1 (stereo not drawn)	0%
Cc1nn(-c2ccccc2)c(OC(=O)c2ccccc2Br)c1S(=O)(=O)c1ccccc1	-2%
COc1ccc2nc(NC(=O)c3cc(=O)c4ccccc4o3)sc2c1	-59%
COc1ccc(C2CC(=O)Nc3c2c(=O)n(C)c2nc4ccccc4n32)cc1 (stereo not drawn)	-2%
Cc1nn(-c2ccccc2)c(OC(=O)C(C)C)c1Sc1ccc(Cl)cc1	2%
O=C(c1cnn(-c2cccc(F)c2)c1-n1cccc1)N1CCN(c2ccccc2F)CC1	2%

Three entries out of the list above, arranged by the number in miR-21 reporter, ascending:
SMILES	miR-21 reporter
COc1ccc(C2CC(=O)Nc3c2c(=O)n(C)c2nc4ccccc4n32)cc1 (stereo not drawn)	-2%
O=C(c1cnn(-c2cccc(F)c2)c1-n1cccc1)N1CCN(c2ccccc2F)CC1	2%
O=C(CN1CCN(CC(=O)Nc2ccccc2F)CC1)Nc1ccc(Cl)c(C(F)(F)F)c1	27%

Further entries.
SMILES	miR-21 reporter
CCn1c(C(=O)NCc2ccccc2Br)cc2oc3ccccc3c21	13%
COC(=O)c1ccc([C@@H]2Nc3c(OC)ccc(C)c3[C@@H]3C=CC[C@@H]32)cc1	-10%
CCOC(=O)C1CCCN(C(=O)c2ccc3c(c2)sc2nc(-c4ccc(C)cc4C)cn23)C1 (stereo not drawn)	-7%
CCOCCCNC(=O)CN1C(=O)c2c(c3ccccc3n2C)C1c1ccc(OC)cc1 (stereo not drawn)	6%
Cc1ccc(CNC(=O)c2cc(-c3ccc(Cl)cc3)on2)cc1	-6%
CSc1nc2sc3c(c2c(=O)n1-c1ccc(F)c(Cl)c1)CCN(C(C)=O)C3	1%
Cc1ccc2oc(=O)c3cnn(CC(=O)NCc4ccccc4Cl)c3c2c1	0%
COc1ccc2c(c1)c1c(c(=O)n(Cc3ccccc3)c(=O)n1Cc1ccc(C)cc1)n2C	-2%
CCc1cnc2c(c1SCC(=O)N1CCCCC1)c(=O)n(C)c(=O)n2C	-1%
CC(C)Oc1ccc(C(=O)NCCc2csc(-c3cccc(F)c3)n2)cc1	0%
CCOC(=O)c1c(NC(=O)Nc2ccc(F)cc2)sc(C(=O)N(C)C)c1C	1%
COc1cc2c(=O)c(S(=O)(=O)c3ccc(C)cc3)cn(Cc3cccc(C)c3)c2cc1OC	17%
Cc1nc2ccc(S(=O)(=O)CCC(=O)Nc3ccc(C)c(C)c3)cc2s1	0%
CSc1ccc(CCNC(=O)c2cc(C)nc3c2c(C)nn3-c2ccccc2)cc1	5%
CC(C)CCNC(=O)CCCn1c(=O)c2cccn2c2ccccc21	20%
Cc1oc2ncn(C)c(=O)c2c1C(=O)NCCCN1CCCC(C)C1 (stereo not drawn)	0%
